# Source: PubChem (Southern Research Institute)
# Mtb H37Rv: Mycobacterium tuberculosis H37Rv growth inhibition, cell based, confirmatory dose response (AID 1949); one-dose inhibition, % at 10 µg/mL; IC50 in µg/mL for titrated hits; M. tuberculosis H37Rv growth inhibition; most inactive calls were filed without a number and no value below 0 was filed; hit rate 1.6% among 100,000;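 active = confirmed in a dose series; inconclusive = about 50% or more but not retested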;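 note: bacteria grown 7 days with compound before Alamar blue readout; 0% = untreated bacteria and 100% = reference antibiotic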
# * = called active by the depositor; i = inactive; ? = inconclusive. This is a subset, so the mix of outcomes need not match the whole.
SMILES	Mtb H37Rv
Cc1c(=O)n(OCc2ccccn2)c2ccccc2[n+]1[O-]	i
CCC(NC(=O)c1ccccc1NC(=O)c1ccco1)C(=O)NC1CCCCC1 (stereo not drawn)	i
COc1ccc2c(c1)c(=O)oc1cc(OC(C)C(=O)c3ccccc3)ccc12 (stereo not drawn)	2.8µg/mL*
Cc1ccc(OCc2nc(-c3ccccc3)no2)cc1C	i
COc1ccc(N2C(=O)C(CC(=O)Nc3ccc(F)cc3)N(Cc3cccnc3)C2=S)cc1 (stereo not drawn)	i
COc1ccc(CNCCNC(=O)c2ccccc2F)cc1OCc1ccccc1	i
CCn1c(-c2ccc3[nH]c(C)c(C)c3c2)n[nH]c1=S	i
CC(=O)C1C(=O)CC(C)(O)C(C(C)=O)C1c1ccc(N(C)C)cc1 (stereo not drawn)	i
CCOC(=O)c1c(-c2cccc([N+](=O)[O-])c2)csc1NC(=O)c1cccc(OC)c1	i
CCc1ccc(OCC(=O)N(C)CCC#N)c(Br)c1	i
COc1ccc(-c2noc(COc3ccc(C)c(C)c3)n2)cc1OC	i
CCC(C)NC(=O)c1ccccc1NC(=O)CN(c1cccc(F)c1)S(C)(=O)=O (stereo not drawn)	i

# Random excerpt: four compounds from above.
SMILES	Mtb H37Rv
Cc1c(=O)n(OCc2ccccn2)c2ccccc2[n+]1[O-]	i
COc1ccc(-c2noc(COc3ccc(C)c(C)c3)n2)cc1OC	i
Cc1ccc(OCc2nc(-c3ccccc3)no2)cc1C	i
CCC(NC(=O)c1ccccc1NC(=O)c1ccco1)C(=O)NC1CCCCC1 (stereo not drawn)	i

# The list goes on.
SMILES	Mtb H37Rv
C#CC(C)(C)OC(=O)Nc1ccc(F)cc1	i
COc1ccc(OC)c(CNCCc2ccc(Cl)cc2)c1	i
COC(=O)c1c(NC(=O)COc2ccc(C)c(C)c2)sc(C(C)=O)c1C	i
COCCNC(=S)N1CCN(c2ccc(C)cc2)C(C)C1 (stereo not drawn)	i
COc1ccccc1CC(=O)Nc1ccc(OC)c(OC)c1	i
C=CCNC(=O)C1CCN(S(=O)(=O)c2ccc(C)cc2)CC1	11%
O=C(Cn1cnc2scc(-c3ccccc3)c2c1=O)N1CCOCC1	i
C#CCOc1ccc(CNc2ccccc2Cl)cc1OC	i
COC(=O)C1=CN(c2ccc(C)cc2)C=C(C(=O)OC)C1c1cc(Br)ccc1OC	i
COc1ccccc1CN1CCN(Cc2ccccc2Cl)CC1	i
C=CCN(CC=C)S(=O)(=O)c1ccc(NC(=S)Nc2ccccc2)cc1	i
COc1ccc(Cl)cc1NC(=O)N1CC(C)OC(C)C1 (stereo not drawn)	i

# (further entries)
SMILES	Mtb H37Rv
Nc1ccc2nc(SCC(=O)c3ccc4ccccc4c3)sc2c1	1%
CCCN(CCC)S(=O)(=O)c1ccc(NC(=O)c2c(OC)cccc2OC)cc1	i
COc1cc(S(=O)(=O)N2CCCCC2)ccc1NC(=O)CCc1ccccc1	i
O=C(Nc1nnc(COc2ccc(Cl)cc2)s1)c1cc(S(=O)(=O)N2CCOCC2)ccc1Cl	i
COC(=O)CCn1cnc(-c2ccccc2)c1-c1ccccc1	i
COc1ccc(-c2c3c(=O)n(C)c(=O)n(C)c3c3c(C)cc(C)nn23)cc1	i
Cc1nnc(SCC(=O)Nc2ccc3c(c2)C(=O)c2ccccc2C3=O)s1	1%
O=C(O)c1ccc(-n2nnnc2Oc2ccccc2F)cc1	0%
COc1ccc(-c2noc(CSc3ccccc3)n2)cc1	i
Cc1cccc(OCCOCCN2CCOCC2)c1C	i
COc1cc(OC)cc(C(=O)O/N=C2/CCCc3ccc(OC)cc32)c1	i
O=[N+]([O-])c1cccc(-c2nc(S(=O)(=O)c3ccccc3)c(N3CCCCCC3)o2)c1	0%

# Continued:
SMILES	Mtb H37Rv
COc1cccc(C(=O)Nc2ccc([N+](=O)[O-])cc2O)c1	2%
COc1ccc(NC(=O)CN(c2ccccc2Cl)S(C)(=O)=O)cc1Cl	i
OCc1cccn1-c1ccc(I)cc1	i
CCOC(=O)N1CCN(C(=O)CN(c2ccc(CC)cc2)S(C)(=O)=O)CC1	i
CCc1cc(=O)oc2cc(OCc3cccc(C(F)(F)F)c3)ccc12	7%
N#CCc1ccc(NC(=O)c2ccc(I)cc2)cc1	i
Cc1ccc(C(=O)NC(C)C(C)(C)C)o1 (stereo not drawn)	i
COc1cccc(C(=O)Nc2nc(-c3ccc(Br)cc3)cs2)c1	i
COc1ccc(OCC(=O)Nc2cccc(-c3nc4ccccc4c(=O)o3)c2)cc1	37µg/mL*
COc1cc(NS(=O)(=O)c2ccc(NC(=O)c3ccc(Cl)cc3Cl)cc2)ncn1	i
O=C(O)c1cn(-c2ccccc2)nc1-c1ccc(Cl)s1	i
Cc1ccccc1NC(=O)COc1ccc(-c2nc3sc4c(c3c(=O)[nH]2)CCCC4)cc1	i

# Following part.
SMILES	Mtb H37Rv
CCSc1nnc(NC(=O)c2ccc([N+](=O)[O-])cc2)s1	i
Cc1ccc2nc(NCCC(=O)O)nc(-c3ccccc3)c2c1	i
O=C(CSc1ncnc2sc3c(c12)CCC3)Nc1nc(-c2ccccc2)ns1	i
COc1ccc(C(=O)Nc2ccc(C(=O)Nc3ccc(Br)cc3)cc2)cc1	1%
O=C1/C(=c2\sc3nc(-c4cccs4)nn3c2=O)c2ccccc2N1Cc1ccccc1F	i
O=C(Cc1cccs1)NC1C2CC3CC(C2)CC1C3 (stereo not drawn)	i
Cc1cc(C)c(S(=O)(=O)Nc2ccc(Br)c(Cl)c2)c(C)c1	i
Cc1ccc2oc(Nc3ncc(C(=O)Nc4ccccc4C)c(C)n3)nc2c1	i
OCCn1c(SCCOc2ccccc2)nc2ccccc21	i
COc1ccc(CCC(=O)NCc2ccc(F)cc2)cc1	4%
CCN(CC)C(=O)c1ccc(NC(=S)NC(=O)CCc2ccccc2)cc1	2%
O=C(CCN1C(=O)c2ccccc2S1(=O)=O)Nc1ccc2c3c(cccc13)CC2	i

# Next part.
SMILES	Mtb H37Rv
O=C(Nc1ccccc1-c1ccccc1)c1ccc(NS(=O)(=O)c2ccccc2)cc1	i
CCn1c(SCc2nc(-c3cccs3)no2)nnc1-c1ccco1	0%
O=C(c1cc(F)c(F)cc1Cl)N1CCN(CCc2ccccc2)CC1	2%
Cc1ccc(-c2cc(C(=O)NCC3CCCO3)c3ccccc3n2)s1 (stereo not drawn)	i
O=C(Nc1ccc(S(=O)(=O)Nc2ccc(Cl)c(Cl)c2)cc1)c1cccnc1	50%
O=C(CCC(=O)c1ccc(Br)cc1)Nc1ccc(Cl)cc1	i
S=C(NCCc1ccc(Cl)cc1)NCc1ccco1	i
COc1cc(N)ccc1-n1c(C)ccc1C	1%
CSc1ccccc1NC(=O)c1c(-c2ccccc2Cl)noc1C	i
COc1ccc(C(=O)Nc2nc(-c3ccc(Br)cc3)cs2)cc1[N+](=O)[O-]	4%
CN(C)C(=O)CSc1nc2sc3c(c2c(=O)n1-c1ccccc1)CCCCC3	i
Cc1cc(F)ccc1NC(=O)C1CCCO1 (stereo not drawn)	i

# Later entries
SMILES	Mtb H37Rv
N#Cc1cc(NC2CCCC2)c([N+](=O)[O-])cc1C#N	i
C=CCOc1nc(N(C)C)nc(N(C)C)n1	i
CCc1cccc(OCC(=O)Nc2ccc(C(=O)OC)cc2)c1	i
O=C(c1cc(-c2cccc(Br)c2)nc2ccccc12)N1CCOCC1	i
O=C(CNC(=O)C1CCCCC1)NNC(=O)COc1ccc(Cl)cc1Br	i
CCOC(=O)Nc1ccc2c(c1)N(C(=O)CN1CCOCC1)c1ccccc1CC2	i
COc1ccc(Cc2nnc(NC(=O)c3cccc(NC(=O)C(C)C)c3)s2)cc1	i
O=C(CCN1C(=O)C2C3C=CC(C3)C2C1=O)Nc1cc(C(F)(F)F)ccc1Cl (stereo not drawn)	i
Nc1cc(N)nc(SCc2ccccc2C(F)(F)F)n1	2%
O=C(COc1ccc2ccccc2c1)N1CCN(C(=O)c2ccccc2F)CC1	i
O=C(Nc1nc2c(Cl)cccc2s1)c1ccc([N+](=O)[O-])o1	1.6µg/mL*
CC1(C)CC(NC(=O)COc2cc(Cl)c(Cl)cc2Cl)CC(C)(C)N1	i

# Next part, starting with the last 5 of the part before.
SMILES	Mtb H37Rv
O=C(CCN1C(=O)C2C3C=CC(C3)C2C1=O)Nc1cc(C(F)(F)F)ccc1Cl (stereo not drawn)	i
Nc1cc(N)nc(SCc2ccccc2C(F)(F)F)n1	2%
O=C(COc1ccc2ccccc2c1)N1CCN(C(=O)c2ccccc2F)CC1	i
O=C(Nc1nc2c(Cl)cccc2s1)c1ccc([N+](=O)[O-])o1	1.6µg/mL*
CC1(C)CC(NC(=O)COc2cc(Cl)c(Cl)cc2Cl)CC(C)(C)N1	i
O=C(NC(=S)Nc1ccc(I)cn1)c1cccc(OCc2ccccc2)c1	i
COc1ccccc1C(=O)Nc1ccccc1C(F)(F)F	3%
CCOC(=O)CSc1nc(O)cc(=O)[nH]1	i
CCOC(=O)C1CCCN(S(=O)(=O)c2ccc(NC(C)=O)cc2)C1 (stereo not drawn)	i
O=Cc1ccc(OCC(=O)Nc2cc(C(F)(F)F)ccc2Cl)cc1	i
C=C(C)COc1c(Cl)cc(C=O)cc1OC	i
COc1cc(C2C3=C(CCCC3=O)NC3=C2C(=O)CCC3)cc(Cl)c1OCc1ccccc1Cl	i
COc1ccc(Cc2cnc(NC(=O)c3ccc(C)cc3)s2)cc1	i
CCN1CCN(CCOc2ccc(I)cc2)CC1	i
Cc1cc(OCC(=O)Nc2ccc(S(=O)(=O)N(C)C)cc2)cc(C)c1Cl	i
COc1cc(CO)cc(Br)c1OCc1cccnc1	i
CCCCC(=O)Nc1cccc(NC(=S)NC(=O)c2oc3ccccc3c2C)c1	i

# Going on with the list.
SMILES	Mtb H37Rv
O=C(Nc1ccccc1C(F)(F)F)N1CCN(c2ccc(Cl)c(Cl)c2)CC1	i
Cc1cc(C)nc(Nc2n[nH]c(-c3ccc(Cl)cc3)n2)n1	i
CCC(c1ccccc1)c1nc(-c2ccccn2)no1 (stereo not drawn)	0%
CC(=O)c1cccc(NC(=O)NNC(=O)c2ccc(Cl)cc2Cl)c1	i
O=C(CSc1nc(-c2cccs2)cc(C(F)(F)F)n1)NN1CCOCC1	i
COc1cc(NC(=S)Nc2cnn(Cc3ccc(Cl)c(Cl)c3)c2)cc(OC)c1	i
CCSCCOC(=O)C1=C(C)NC2=C(C(=O)CCC2)C1c1ccc(-c2ccccc2)cc1 (stereo not drawn)	i
CC(=O)Nc1nnc(SCC(=O)Nc2cccc3ccccc23)s1	i
C=CCc1cc(C)ccc1OCCOCCN(CC)CC	i
O=S(=O)(c1cccs1)N1CCN(c2ccccc2F)CC1	i
O=C(Cc1ccccc1)Nc1ccc(NC(=O)c2sc3cc(Cl)ccc3c2Cl)cc1	0%
O=C(NCCCn1ccnc1)c1cc(-c2ccc(Br)cc2)nc2ccccc12	9.4µg/mL*

# Other compounds
SMILES	Mtb H37Rv
O=C(Nc1c(C(=O)N2CCOCC2)cnn1-c1ccccc1)c1cccc(F)c1	i
COC(=O)c1ccc(NC(=O)/C(=C\c2ccc(OC)cc2)NC(=O)c2ccccc2Cl)cc1	i
COc1cccc(C(=O)NC2=NCCS2)c1OC	i
Cc1cc(NC(=O)c2cc3ccccc3o2)cc(C)c1OCC(=O)N1CCOCC1	3%
Cc1ccc(NC(=O)c2cc(NC(=O)CCC(=O)O)ccc2N2CCOCC2)cc1	i
CCCOc1ccc(C2C(C(=O)c3cccs3)=C(O)C(=O)N2CCCN(C)C)cc1OC (stereo not drawn)	i
CCc1cccc(C)c1NC(=O)c1cc(C)oc1C	i
CCOC(=O)c1ccc(NC(=O)N2CCc3ccccc3C2)cc1	?
Fc1ccc(Nc2nc(-c3ccc(F)cc3)cs2)cc1	i
O=c1[nH]c(CN2CCN(Cc3ccc4c(c3)OCO4)CC2)nc2ccccc12	i
COc1ccc(C(=O)Nc2ccccc2)cc1S(=O)(=O)N1CCc2ccccc2C1	i
O=C(CSc1ncnc2scc(-c3ccc(Cl)cc3)c12)Nc1ccccc1F	i

# Next results follow:
SMILES	Mtb H37Rv
CSc1cccc(NC(=O)c2ccccc2OCC(=O)NCc2ccccc2)c1	i
Cc1ccc(Cl)c(OCC(=O)NN2CCOCC2)c1	i
COc1ccc(CN2C(=S)N(C)C(=O)C2CC(=O)Nc2cccc(Cl)c2)cc1OC (stereo not drawn)	1%
CCN(CC)c1ccc(NC(=O)C2CCCCC2C(=O)O)cc1 (stereo not drawn)	i
C1=CC2c3cc(-c4ccccc4)ccc3NC(c3cccnc3)C2C1 (stereo not drawn)	2%
O=C(O)c1cccc(COc2ccc(I)cc2)c1	i
COc1ccccc1N1CCN(C(=O)c2ccccc2SC)CC1	i
c1ccc(CNCc2cn(-c3ccccc3)nc2-c2ccncc2)cc1	17µg/mL*
CC1CCc2c(sc3ncnc(SCC(=O)NC4CCCCC4)c23)C1 (stereo not drawn)	i
O=C(O)c1ccc(Cl)c(NC(=S)NC(=O)c2ccc(F)cc2)c1	5%
O=S(=O)(Cc1ccccc1)NCc1ccccn1	0%
COC(=O)c1ccc(Cl)c(NC(=O)CSc2ncn[nH]2)c1	i

# The listing continues.
SMILES	Mtb H37Rv
CC(=O)c1cccc(NC(=O)CSC2c3ccccc3-c3ccccc32)c1	i
CCN(C)c1cc(OC)c(C=O)cc1C	i
O=C(Cn1cc(C(=S)N2CCOCC2)c2ccccc21)N1CCOCC1	i
Cn1c(CNC(=O)c2ccccc2Cl)nnc1SCC(=O)Nc1ccc(Br)c(Cl)c1	i
O=C1NC(=S)NC(=O)C1c1ccccc1	i
COc1c(C)cccc1C(=O)NC(=S)Nc1ccccc1I	i
COc1ccc(C(=O)NC(=S)Nc2ccc3c(c2)oc2ccccc23)cc1Br	i
O=C(O)C1C2C=CC(O2)C1C(=O)Nc1ccc(Oc2ccc(Cl)cc2)cc1 (stereo not drawn)	i
